Source: PubChem BioAssay
ugtP null kill – growth inhibition of S. aureus ugtP deletion strain | S. aureus RN4220 ugtP deletion, OD600 growth, 16 h; some inactives read as strong as hits | growth inhibition, % (test concentration not listed) | hit rate 0.54% among 330,000;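 active = z-score under -3 and OD600 up to 0.15 on both plates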;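 note: plate controls were untreated wells for no effect and antibiotic for full effect; wells of about 80 µL received 100 nL stock; the first replicate is given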
BJeLR lethal – BJeLR cell viability loss | BJeLR (HRASV12) viability, CellTiter-Glo ATP luminescence, 48 h; reference of the scale not given here | inhibition, % (test concentration not listed) | hit rate 0.17% among 300,000;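 active = replicate mean above 50%; inconclusive = above 50% but judged a plate artefact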;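 note: 50 nL library stock added to about 25 µL; numbers are from one replicate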
Mtb hypoxia inh – Mtb hypoxia fluorescent reporter inhibition. M. tuberculosis hypoxia-regulated fluorescent reporter, fluorescence. fluorescence inhibition, % (concentration not given with the values). hit rate 0.1% among 300,000. AID 1159583;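 active = 35 to 45% if threefold the growth effect, above 45% if 1.5-fold the growth effect; inactive = the rest, general growth blockers included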;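 note: wells of about 50 µL received 100 nL stock; 0% = vehicle wells and 100% = reference inhibitor wells; whole bacteria with a GFP reporter of the hypoxia response; strong numbers were not always called active; many hits fall short of the cut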
PrP 5UTR inh – inhibition of PrP 5' UTR reporter expression | cell-based PrP 5' UTR mRNA reporter, plate reader | inhibition, % (test concentration not listed) | hit rate 0.35% among 340,000;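 active = every replicate at 50% or more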;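 note: 0 = median of the neutral control wells; tested in H4 reporter cells; numbers are from one replicate; inactives centre near -14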
RN4220 kill – S. aureus RN4220 growth inhibition. OD600, 16 h. inhibition, % (no concentration beside the values). hit rate 0.33% among 330,000. AID 1259311;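 active = z-score of -3 or lower and OD600 up to 0.18 on both plates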;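 note: plate controls were untreated cells for no effect and reference antibiotic for full effect; stock transfer was 100 nL into about 80 µL; one replicate is shown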
Bead autofluor – compound fluorescence in toxin protease inhibitor counterscreen. hit rate 3.1% among 360,000. compound autofluorescence counterscreen, microsphere flow cytometry; active compounds read high. fluorescence intensity (no concentration beside the values);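 active = at least 3 SD above the mean of all compounds, about 16000 in these data; inconclusive = too few beads counted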;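 note: 100 nL of 1 mM stock went into each well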
Mtb hypoxia inh growth – second read-out of Mtb hypoxia inh, no call of its own (marks repeat the call); growth inhibition, %; measured here: M. tuberculosis growth (absorbance);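 0% = vehicle and 100% = reference antibiotic; read after six days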
The depositor's hits bear a star; ? = inconclusive; . = no result given. Compounds were not picked by outcome (roughly 4% active in at least one column).

SMILES	ugtP null kill	BJeLR lethal	Mtb hypoxia inh	Mtb hypoxia inh growth	PrP 5UTR inh	RN4220 kill	Bead autofluor
Cc1ccc(N2CC(C(=O)Nc3cc(C)on3)CC2=O)c(C)c1 (configuration not stated)	6	-2	7	4	-14	3.2	3622
COC(=O)[C@H](Cc1ccccc1)NC(=O)c1ccc2ccccc2n1	0	9	2	-4	-18	7.0	4081
COc1ccc(-n2c(C)cc3cc(OC(C)=O)ccc32)cc1	11	7	6	6	-4	-3.4	3160
Cc1cc(CN(C)C(=O)CC2C(=O)NCCN2Cc2ccc(-c3ccccc3)cc2)on1 (configuration not stated)	-3	3	-5	1	-6	2.2	6534
COC(=O)c1cc2ccsc2n1CC(=O)Nc1cc(C)cc(C)c1	14	-6	1	2	-12	9.1	6028
CC(C)(C)S(=O)(=O)C(C#N)=NNc1ccc(C#N)cc1	0	.	18	10	.	9.8	.
Cc1ccc2nc(SCC(=O)Nc3ccc(F)cc3)nc(=O)n2c1	4	3	4	0	-18	5.4	?
O=C(Nc1ccc(-c2nc3c(ccc4ccccc43)o2)cc1)c1ccco1	19	2	3	2	-136	1.5	15745
Cc1ccc(NC(=O)c2cc(-c3ccco3)on2)cc1	1	6	7	4	-7	6.1	8518
COc1ccc(S(=O)(=O)N2CCOCC2)cc1NC(=O)CSc1nnc2ccccn12	4	-6	16	0	.	0.1	.
Cc1noc(C)c1CSCC(=O)Nc1cc(S(=O)(=O)N2CCOCC2)ccc1OC(C)C	0	-6	-2	8	-4	-0.8	?
COc1cc(/C=N/NC(=O)C(C)n2nnc3ccccc32)ccc1O (configuration not stated)	.	-11	.	.	-17	.	2420
O=C(NC(=S)NC1CC1)c1cccnc1	7	-1	23	14	-8	4.7	4373
COc1cccc(C=NNC(=O)c2ccc(=O)[nH]n2)c1O	1	.	14	-4	.	-0.9	.
Cc1cccc(OCC(=O)Nc2cc(C)on2)c1	0	6	9	1	-19	0.5	2827
O=C(O)c1cc(/C=C/C(=O)c2cc(F)ccc2O)c2c(c1)COCO2	13	.	-1	7	-17	3.1	3444
COc1ccc(C(=O)C(C#N)=NNc2cccc([N+](=O)[O-])c2)cc1	87*	.	14	7	.	86*	.
NC(=O)CC[C@@H]1NC(=O)[C@@H]2CCCN2C(=O)c2cc([N+](=O)[O-])cc(F)c2NCCC[C@@H](C(N)=O)NC1=O	.	2	.	.	-16	.	3975
Cc1nn(Cc2ccc(F)cc2)c(C)c1NC(=O)c1cc2ncc(Br)cn2n1	-1	2	2	3	-20	0.1	4588
O=C(O)C1=C[C@H](c2ccc(C(F)(F)F)cc2)C[C@H](OCCCCO)O1	.	0	.	.	-19	.	3439
CCOc1cccc(-c2nnc(SCC(=O)Nc3cc(OC)cc(OC)c3)n2N)c1	-2	12	1	0	-9	2.6	22656*
CC(C)CC(NC(N)=O)C(=O)OCC(=O)N(Cc1ccccc1)Cc1ccccc1 (configuration not stated)	2	.	-4	4	-23	3.9	4427
Cc1c(N2C(=O)CSC2c2ccc([N+](=O)[O-])cc2)c(=O)n(-c2ccccc2)n1C (configuration not stated)	0	1	-8	1	-18	0.4	.
CCN1C(=O)CSc2ccc(C(=O)OC)cc21	2	-6	.	.	-26	3.7	5924
Cc1ccc(NC(=O)c2c(C)noc2-c2snnc2C)cc1	3	-1	-10	-4	-10	7.2	4736
COc1cccc2c1C(=O)O/C2=C/c1ccc2c(c1)OCO2	.	1	.	.	21	.	2361
COc1ccc(N2CC(C(=O)Nc3nnc(SCC(=O)NCC4CCCO4)s3)CC2=O)cc1 (configuration not stated)	14	1	7	-2	-2	1.4	5979
CNC(=S)N1CCN(S(=O)(=O)c2ccc3ccccc3c2)CC1	8	-6	5	-3	-3	-4.0	4487
CN(c1ccc(C(=O)NN=Cc2cccc([N+](=O)[O-])c2)cc1)S(=O)(=O)c1ccccc1	-5	.	-12	2	.	-1.0	.
CCN(CC)C(=O)c1ccc(N2C(=O)C3CC=C(Cl)CC3C2=O)cc1 (configuration not stated)	0	4	-7	-5	-3	0.1	9057
COP(=O)(OC)C(NC(=O)C=Cc1ccccc1)C(Cl)(Cl)Cl (configuration not stated)	4	.	9	10	.	3.7	.
O=C(NCC(=O)N1CCc2ccccc2C1)c1ccccc1Cl	8	-1	15	8	-25	1.9	3057
Cc1ccc(S(=O)(=O)N(C)CC(=O)NNC(=O)CCS(=O)(=O)c2ccccc2)cc1	0	.	-12	2	-5	3.1	4361
CCCC(c1nnnn1C(C)(C)CC)N1CCN(C(=O)c2ccco2)CC1 (configuration not stated)	6	-16	13	3	-21	2.0	5894
Cc1ccnc(NC(=O)CCC(=O)N(CC(=O)NC(C)(C)C)C2CCCC2)c1	3	-12	.	.	-12	2.8	4344
CC(=O)c1cccc(NC(=O)c2cccc(N3C(=O)c4ccccc4C3=O)c2)c1	2	11	3	13	-8	0.7	5265
O=C(CSc1ncn[nH]1)Nc1cccc(S(=O)(=O)N2CCCCCC2)c1	5	-8	0	6	-26	9.7	1924
COc1ccccc1C(C[N+](=O)[O-])c1c[nH]c2ccccc12 (configuration not stated)	-1	5	15	-3	-7	7.8	3914
O=C(O)CC(=O)Nc1ccc(Oc2ccc(C(F)(F)F)cn2)c(Cl)c1	-7	0	3	9	6	-0.2	3640
Cn1nnc2ccccc2c1=O	5	5	15	3	-17	4.9	2059
CSCCCNC(=S)N1CCc2ccccc2C1	7	1	11	12	1	1.3	4727
Cc1cc(C)nc(NN=Cc2ccccc2OCc2ccc(Cl)cc2)n1	7	.	4	1	.	13	.
O=C(Cc1cccs1)N/N=C/C(Cl)=C/c1ccccc1	.	4	.	.	-49	.	2509
C/C=C/C(=O)OCC(=O)Nc1nc2ccc(C)cc2s1	.	0	.	.	-26	.	3051
Cc1ccc(CNC(N)=S)cc1	-2	-9	5	1	-6	-1.3	3051
COc1cc(C)ccc1Oc1nc(-c2ccccc2O)nc2ccccc12	3	7	-15	1	-5	-4.2	4872
O=C(CN1CCCCC1)N1CCc2ccccc21	4	-7	-6	-2	-10	2.1	4100
CCOC(=O)[C@@H]1[C@H]2COc3ccc(Br)cc3[C@H]2N2C(=O)N(c3ccc(Br)cc3)C(=O)[C@]12C	.	-1	.	.	-2	.	2952
Cc1c(NC(=O)c2cc3c(s2)CCCC3)c(=O)n(-c2ccccc2)n1C	1	0	18	6	-13	2.0	4298
CN1C(=O)CC(C(=O)O)SC1=Nc1cc(Cl)cc(Cl)c1 (configuration not stated)	-8	3	6	2	-12	14	7600

5 structures out of the list, sorted by SMILES length, highest first:
SMILES	ugtP null kill	BJeLR lethal	Mtb hypoxia inh	Mtb hypoxia inh growth	PrP 5UTR inh	RN4220 kill	Bead autofluor
CCOC(=O)[C@@H]1[C@H]2COc3ccc(Br)cc3[C@H]2N2C(=O)N(c3ccc(Br)cc3)C(=O)[C@]12C	.	-1	.	.	-2	.	2952
Cc1cc(CN(C)C(=O)CC2C(=O)NCCN2Cc2ccc(-c3ccccc3)cc2)on1 (configuration not stated)	-3	3	-5	1	-6	2.2	6534
CCN(CC)C(=O)c1ccc(N2C(=O)C3CC=C(Cl)CC3C2=O)cc1 (configuration not stated)	0	4	-7	-5	-3	0.1	9057
COc1cc(C)ccc1Oc1nc(-c2ccccc2O)nc2ccccc12	3	7	-15	1	-5	-4.2	4872
CCN1C(=O)CSc2ccc(C(=O)OC)cc21	2	-6	.	.	-26	3.7	5924

Continuation.
SMILES	ugtP null kill	BJeLR lethal	Mtb hypoxia inh	Mtb hypoxia inh growth	PrP 5UTR inh	RN4220 kill	Bead autofluor
CCOC(=O)c1c(C)c(C(=O)Nc2ccc(N(C)C)cc2)c(C)n1CC	5	18	5	1	.	2.9	10589
COc1ccc(/C=N/Nc2nc(N3CCCC3)nc(N3CCCC3)n2)c(OC)c1OC	.	-18	.	.	-8	.	2214
O=C(c1cc(S(=O)(=O)N2CCOCC2)ccc1Cl)N1CCOCC1	4	0	1	4	3	1.9	5391
CCc1cc(CNC(=O)c2ccc3nc(Cc4ccc(OC)c(OC)c4)oc3c2)on1	2	12	-3	-4	-23	-2.1	6302
Cc1cccn2c(=O)c3cc(C(=O)N4CCN(C(=O)c5ccco5)CC4)n(C)c3nc12	-3	1	-85	-7	-10	0.3	4038
CCN(CC)S(=O)(=O)c1ccc2oc(Nc3ccc(OC)cc3OC)nc2c1	10	-2	5	4	-19	4.0	5330
CCOC(=O)c1cnc(-n2nc(C)cc2C)nc1NCCc1ccccc1	-7	9	.	.	-12	10	?
Cc1ccsc1/C=N/NC(=O)CO	.	3	.	.	-22	.	2577
CCc1ccc(N2C(=O)CN(Cc3cccs3)C2=S)cc1	9	8	-2	11	-9	3.3	4919
Cc1oc(-c2cccc(Cl)c2)nc1CSCC(=O)O	9	-7	9	2	-7	6.1	5828
CC(=O)c1ccc(OC(=O)C(CCS(C)(=O)=O)N2C(=O)c3ccccc3C2=O)cc1 (configuration not stated)	1	1	11	6	-2	9.5	21318*
O=C(Nc1ccccc1C(=O)NN=Cc1ccc(O)cc1)c1ccccc1	7	.	0	11	.	0.9	.
Cc1cc(NC(=O)Nc2ccc(Cl)c(Cl)c2)no1	-23	-7	9	8	-50	-11	3729
CC(C)[C@@H](CO)NS(=O)(=O)c1ccc(Br)cc1F	7	.	-7	-8	-9	2.8	3891
CCCn1c(=O)c(C(=O)NNS(=O)(=O)c2ccc(NC(=O)OC)cc2)c(O)c2ccccc21	97*	-6	-1	1	-23	97*	3786
Cc1ccc2cc(CCNC(=O)c3ccc4c(c3)OCO4)c(=O)[nH]c2c1C	16	0	9	6	0	7.4	5195
COc1ccc(S(=O)(=O)NCc2cccnc2)cc1Br	4	2	7	5	-15	3.6	3778
COc1ccc(S(=O)(=O)N2CCOCC2)cc1NC(=O)CCNC(=O)c1ccc(Br)cc1	5	108*	2	4	-11	2.4	?
C=CCNC(=O)CN1CCC(c2nc3ccccc3[nH]2)CC1	2	0	9	1	-17	2.3	6059
O=C(O)c1cccc(NS(=O)(=O)c2ccc(NC(=O)c3ccco3)cc2)c1	-2	-1	0	5	-36	0.7	4220
O=[N+]([O-])c1cc(C(F)(F)F)cc([N+](=O)[O-])c1NN=C1CCCCC1	15	1	16	9	-30	34	2008
CN(C(=O)COc1ncnc2c1cnn2-c1ccccc1)C1CCCCC1	7	-5	4	15	-5	14	4244
O=C(CCCOc1ccc(Cl)cc1Cl)NNC(=O)c1ccc(NC(=O)c2ccccc2)cc1	7	-5	-1	0	-22	8.2	2205
COc1ccc(OC)c(C(=O)CN2C(=O)NC(C)(c3ccccc3)C2=O)c1 (configuration not stated)	4	-5	-1	6	-12	0.7	10241
COc1cccc(OC)c1OCCN(C)C	12	-2	12	2	1	5.6	3980
CC(=NNC(=O)c1ccc(Cl)cc1)c1ccc2[nH]ccc2c1	0	.	4	4	.	1.4	.
COc1ccc2cc3cc(C(=O)N4CCN(c5ccccc5)CC4)oc3nc2c1	1	4	2	-4	-13	2.2	4440
CC(C)NC(=O)c1[nH]nc2c1CCc1ccccc1-2	-3	-1	0	-1	-27	-0.6	3000
c1ccc(CSc2ncnc3c2ncn3C2CCCCO2)cc1 (configuration not stated)	4	.	2	12	-59	1.4	3762
Cc1ccccc1NC(=S)N=Nc1c(O)n(C)c2ccc(S(=O)(=O)N3CCOCC3)cc12	-10	-3	6	3	4	2.1	2456
O=C(NCCN1CCN(C(=O)c2cccc(Br)c2)CC1)C(=O)NCc1ccccc1	4	-2	4	5	-14	0.1	?
COc1cccc(CC(=O)Nc2nc(C)cs2)c1	5	-2	4	-11	-27	6.0	3472
COc1cccc(-c2nc(-c3ccccc3)nc(N3CCN(C)CC3)c2C#N)c1	-2	-10	1	6	-5	-4.6	4157
O=C(Nc1ccc2[nH]ccc2c1)c1ccccc1	-1	5	10	-4	-48	1.5	5811
COCCSc1nnc(NC(=O)CCS(=O)(=O)c2ccccc2)s1	5	-2	17	3	-25	6.9	3626
O=C(Cn1c(=O)sc2ccccc21)Nc1ccc(S(=O)(=O)N2CCCC2)cc1	8	3	3	23	-4	-4.6	10184
O=C(/C=C/c1ccco1)N(Cc1cccc(F)c1)C1CCS(=O)(=O)C1 (configuration not stated)	-1	12	15	-1	-2	4.3	6869
